From PubChem BioAssay
NPYLR7 agonist – activates Aedes aegypti NPYLR7 receptor; AID 1259423; hit rate 0.15% among 270,000; HEK293T NPYLR7/Galpha15, GCaMP6s calcium fluorescence; activation, % at 10 µM; in the data active = activation above about 40%;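 also: 0% = vehicle and 100% = reference agonist at the receptor; some compounds past the cut are filed as inactive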
NPYLR7 agonist max-min – second read-out of NPYLR7 agonist, no call of its own (marks repeat the call); activation, %; measured here: Max-Min RFU normalised activation; some inactives read as strong as hits;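 span of the calcium signal over five minutes; 0% = vehicle and 100% = native peptide agonist; compound fluorescence can raise it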
Starred values were filed as active, the others as inactive; & = joins results of further samples. These rows are one share of the data (hit frequency here may not be typical).

SMILES	NPYLR7 agonist	NPYLR7 agonist max-min
O=c1[nH]c(O)c(C=Nc2ccncc2)c(=O)[nH]1	24.1	13.6
Cn1c(=O)c2[nH]c(CN3CCN(c4cccc(Cl)c4)CC3)nc2n(C)c1=O	1.0	28.5
CCOC(=O)c1cc(-c2cccc(NC(=O)c3ccc(C#N)cc3)c2)n(-c2cccc(F)c2)n1	4.4	0.6
Cc1ccc(NNC(=O)Cn2cccc(C(F)(F)F)c2=O)cc1Cl	1.9	0.0
Cc1cc(Oc2ccccc2F)nc(SCc2cc(F)ccc2F)n1	4.3	18.7
CNC(=O)c1ccc(-c2cc3ccccc3nc2OC)o1	4.9	2.5
COc1cc(-c2nc3ccccn3c2NC(C)(C)CC(C)(C)C)ccc1OS(=O)(=O)c1ccc(C)cc1	-5.0	4.2
COc1ccc(CN2CC(COc3ccccc3)Oc3ncccc3C2=O)cc1 (centres undefined)	7.1	17.1
O=S(=O)(Nc1nc2ccccc2s1)c1cccs1	-2.6	-4.6
CN1CCN(C(=O)c2cccc3c2Oc2nc4ccccc4nc2O3)CC1	-4.6	-2.9
O=C(CN1C(=O)c2ccccc2C1=O)Nc1ccc(Br)cc1C(=O)O	-0.5	-9.8
Nc1ccccc1NC1=C([N+](=O)[O-])CS(=O)(=O)C1	0.4	0.0
O=S(=O)(c1ccc(Cl)s1)N1CCCC1c1ccc2c(c1)OCCCO2 (centres undefined)	0.1	-1.7
COCc1cc(C)nc(NN=Cc2ccc(-c3ccc(Br)cc3)o2)c1C#N	-24.8	-27.2
CC(=O)c1ccc(OC(=O)c2nn(C(C)C)c(=O)c3ccccc23)cc1	-0.9	-4.6
Cc1ccc(-c2nn(CC(=O)N3CCc4ccccc43)c(=O)c3nc(C)sc23)cc1	11.2	8.4
Cc1ccc(C(=O)NNC(=O)CN(C)S(=O)(=O)c2ccc(Cl)s2)c(C)c1	3.6	1.3
CCOc1ccccc1CNC(=O)c1cc(S(C)(=O)=O)ccc1F	-1.3	-1.3
CN(Cc1cccc(Cl)c1)C(C(N)=O)c1ccc(F)cc1 (centres undefined)	-0.5	-0.8
CCCn1c(SCC(=O)Nc2cc(S(=O)(=O)N3CCCC3)ccc2Cl)n[nH]c1=O	7.7	-1.6
OC1CCN(c2ccnc(N3CCC(Oc4cccnc4)CC3)n2)C1 (centres undefined)	8.8	7.8
O=C(NCC1(c2ccc(F)cc2)CCOCC1)c1ccccc1F	3.6	1.4
Cc1ccccc1CC1(C)C(=O)Nc2ccc(-c3ccc(F)c(Cl)c3)cc21 (centres undefined)	1.7	1.7
CN(C)CC(C)(C)CNC(=O)c1ccc2nc(-c3ccccc3)c(-c3ccccc3)nc2c1	-8.9	-11.8

Given with each value named: four of the compounds above
O=S(=O)(c1ccc(Cl)s1)N1CCCC1c1ccc2c(c1)OCCCO2 (centres undefined)
- NPYLR7 agonist = 0.1
- NPYLR7 agonist max-min = -1.7
CCCn1c(SCC(=O)Nc2cc(S(=O)(=O)N3CCCC3)ccc2Cl)n[nH]c1=O
- NPYLR7 agonist = 7.7
- NPYLR7 agonist max-min = -1.6
O=C(NCC1(c2ccc(F)cc2)CCOCC1)c1ccccc1F
- NPYLR7 agonist = 3.6
- NPYLR7 agonist max-min = 1.4
COCc1cc(C)nc(NN=Cc2ccc(-c3ccc(Br)cc3)o2)c1C#N
- NPYLR7 agonist = -24.8
- NPYLR7 agonist max-min = -27.2

Following part
SMILES	NPYLR7 agonist	NPYLR7 agonist max-min
CC(C)OC(=O)CSc1nnc(CNc2ccc(Cl)cc2)n1-c1ccccc1	-6.2	11.9
CCOc1ccc2c(c1)C(=O)NC(c1nc[nH]c1C)N2 (centres undefined)	9.3	7.0
O=C(c1ccc(CSc2nnc3ccccn23)cc1)N1CCC(O)(c2ccc(Cl)cc2)CC1	3.5	-0.7
CCOc1ccc(C(=O)Oc2cc(N)n(S(=O)(=O)c3ccc(C)cc3)n2)cc1	4.8	8.7
Cc1ccc(CN2N=C(c3ccccc3)Cn3c2nc2c3c(=O)n(C)c(=O)n2C)cc1	-7.5	-7.3
CCOCCCN(CC(=O)N(Cc1ccc(F)cc1)Cc1ccc(C)o1)C(=O)Nc1ccc(OC)cc1OC	-0.5	7.4
CCN(CC)CCn1c(C)c(C)n2c3c(=O)n(Cc4ccccc4)c(=O)n(C)c3nc12	-5.9	-6.0
O=C(c1cc(=O)[nH]c2ccccc12)N(Cc1ccccc1)Cc1ccco1	-5.7	-5.0
Cc1cc(C(=O)N2CCC(n3c(=O)oc4ccc(F)cc43)CC2)cc(Cl)n1	3.3	0.1
COCCN(Cc1csc(COc2cccc(C)c2C)n1)C(=O)c1ccc(Cl)cc1	-6.0	-5.1
COc1ccccc1NC(=O)c1nn(C)cc1[N+](=O)[O-]	-2.3	-6.3
COc1cccc(-c2cc(C(=O)N3CCN(C(c4ccccc4)c4ccccc4)CC3)nc3cc(C(C)(C)C)nn23)c1	8.0	5.1
Clc1ccccc1-c1nc(-c2ccccc2)no1	-2.7	-8.0
CSc1ccc(C(=O)CC(C)(C)C(=O)NCCc2ccc(S(N)(=O)=O)cc2)cc1	-8.1	-13.6
O=C(c1ccccc1)N1CCN(S(=O)(=O)c2ccc3c(c2)CCCC3)CC1	-0.4	4.9
COc1ccc(-c2cc(F)ccc2C(C)=O)cn1	17.4	4.5
O=C(c1ccc(F)cc1C(F)(F)F)N1CCC(Cc2ccccc2)CC1	22.0	3.4
Cc1ccc(NC(=O)c2sc(=O)n(Cc3ccc(-c4ccccc4)cc3)c2C)cc1	12.2	2.7
CC(C)Cc1ccc(-c2cc(Nc3ccccc3)ncn2)cc1	-0.9	-2.9
CCc1nc(C)c(C(=O)NC(C)(C)c2noc(C(C)(C)C)n2)s1	2.4	4.1
Cc1cc(C)cc(N2C(=O)CSC2c2cccc(NC(=O)CCc3ccccc3)c2)c1 (centres undefined)	9.7	11.5
Cc1nnc(NC2CCCC2)s1	8.0	12.0
CCOC(=O)N1CCC(NC(=O)Cc2cc(=O)[nH]c(SCc3ccc(F)cc3)n2)CC1	-4.8	-7.9
Cc1nc2ccccc2nc1CSCc1nc2ccccc2nc1C	-2.5	-1.5
CCSc1nnc2ccc(-c3ccco3)nn12	-12.3	-10.6
COc1ccc(Cl)cc1NC(=O)Cn1nc(SC)c(-c2nc(-c3ccc(C)cc3)no2)c1N	0.5	0.1
CCc1ccc(CN2CCC(CNC(=O)c3cccc(C)c3)C2)nc1 (centres undefined)	2.8	-2.6
Cc1ccc(C2(O)CCN(C(=O)Cc3c(C)n[nH]c3C)CC2)nc1	5.7	4.9
O=C(NCCc1ccccn1)c1ccc(F)cc1Br	-0.2	0.7
CCOC(=O)CCC(=O)N1CCN(c2nccc(-c3cccs3)n2)CC1	2.6	15.0
Cc1ccccc1OCc1nc(CN(CCN2CCOCC2)C(=O)C2CCCC2)cs1	3.0	2.4
O=C(CN1CCCc2ccc(F)cc21)Nc1cccc2nsnc12	0.6	-3.0
Cc1csc2n1cc(C)[n+]2Cc1ccccc1[N+](=O)[O-]	-6.7	-13.9
CCOC(=O)c1c(NC(=O)c2ccc(SC(F)(F)F)cc2)sc2c1Cc1ccccc1-2	12.6	4.0
CN(Cc1cc2ccccc2[nH]c1=O)S(C)(=O)=O	5.2	0.6
CCOC(=O)C1(Cc2cccc(OC)c2)CCN(Cc2cccc3cnccc23)CC1	-7.0	-6.2

Single records (already shown). Screens in order: NPYLR7 agonist	NPYLR7 agonist max-min
Results for `CCOC(=O)CCC(=O)N1CCN(c2nccc(-c3cccs3)n2)CC1` = 2.6	15.0
Results for `CCOCCCN(CC(=O)N(Cc1ccc(F)cc1)Cc1ccc(C)o1)C(=O)Nc1ccc(OC)cc1OC` = -0.5	7.4

The list continues:
SMILES	NPYLR7 agonist	NPYLR7 agonist max-min
COc1ccc(NC(=O)N2CCSC23C(=O)N(Cc2ccccc2Cl)c2ccccc23)cc1 (centres undefined)	-1.9	7.1
O=C(c1ccc(=O)n(Cc2ccc(F)cc2)n1)N1CCc2ccccc21	3.4	0.7
Cc1cc(NC(=O)CCSCCC(=O)Nc2cc(C)on2)no1	4.1	2.9
COCCNCc1nc2scc(-c3ccc(OC)c(OC)c3)c2c(=O)[nH]1	-5.0	0.2
Cn1ccc(=O)n(CC(=O)c2ccc3c(c2)CCCC3)c1=O	15.7	13.5
C[C@H](NC(=O)C1(N2Cc3ccc(-c4ccnn4C)nc3C2=O)CC1)c1ccccc1	-7.0	-3.3
CC(=O)c1cccc(-c2ccc(/C=C3\C(=O)N(c4cccc(C(=O)O)c4)N=C3C)o2)c1	-3.4	-9.5
CCN(CC)c1ncccc1CNC(=O)c1cccc(C)c1Cl	0.8	-1.6
O=C(NCC1CCCO1)c1cccc(Nc2c(Oc3ccccc3)cnn(-c3ccccc3Cl)c2=O)c1 (centres undefined)	5.0	3.6
Cc1cc(F)ccc1S(=O)(=O)NCCc1csc2nc(-c3ccc(Cl)cc3)nn12	7.8	7.8
C=CCn1c(O)c(C=C2C(C)=Nc3ccccc32)c(=O)[nH]c1=S	18.8	6.5
CCn1nc(C)c(NC(=O)CN2CC(Oc3c(C)cccc3C)C2)c1C	13.5	6.9
FC(F)(F)c1ccc(-c2noc([C@@H]3Cc4nc[nH]c4CN3Cc3cc4ccccc4o3)n2)cc1	-8.8	-13.9
CN(C)N=Cc1ccc(C(O)(c2nc3ccccc3s2)C(F)(F)F)o1 (centres undefined)	0.6	6.3
Cc1cc(OC(=O)c2cccs2)c([N+](=O)[O-])c(=O)[nH]1	-2.7	-3.2
C#CCOCC(O)CN(CCC(C)C)Cc1ccc(OC)c(OC)c1 (centres undefined)	-13.1	-12.4
Cn1cnnc1CC1CCN(Cc2nn(C)c3cccc(Cl)c23)CC1	-1.1	-8.9
Cc1cccc(CN(C)C(=O)c2ccc(CS(C)(=O)=O)cc2)n1	1.8	0.4
NC(=O)c1ccc(COC(=O)C2(c3ccc(F)cc3)CCCC2)cc1	-0.8	-3.7
Cc1cccc(CN2CCN(CC3CCCCC3)C(CCO)C2)n1 (centres undefined)	-3.8	-5.2
C/C(=C/C(=O)C(C#N)c1nc2cc(Cl)ccc2s1)C1CC1 (centres undefined)	14.8&-2.3	11.7&-6.7
CC1CN(c2cc(Cl)nc(SCC(=O)O)n2)CCN1C(=O)c1ccccc1Cl (centres undefined)	13.0	14.4
Cc1cc(C)cc(C(=O)NCCn2c(C)cc3ccccc32)c1	-0.1	-1.7
Cn1c(=O)c2c(nc(NCCc3ccccc3)n2CCCc2ccccc2)n(C)c1=O	-0.9	51.1
CC1(C(=O)Nc2cnc3ccccc3c2)CCN1Cc1ccc2c(c1)OCCO2 (centres undefined)	4.2	-3.9
N#CC1(c2ccccc2)CCN(C(=O)C2CC=CCC2C(=O)N2CCC(n3c(=O)[nH]c4ccccc43)CC2)CC1 (centres undefined)	-9.2	-13.7
Cc1n[nH]c(C)c1S(=O)(=O)NCCOc1ccc2nnc(-c3ccccc3)n2n1	-2.0	-2.8
CC(=O)c1cc(C(=O)OCC(=O)Nc2cc(C)ccc2C)c2ccccn12	2.4	-6.9
Cc1ccccc1-c1nc2cccc(C)n2c1NC1CCCCC1	-7.0	0.7
CC(C)C(=O)N1CC(=O)N2CCc3c(F)cccc3C2C1 (centres undefined)	2.6	2.3
COc1ccc(-c2nn(-c3cccc(F)c3)c(OC(C)=O)c2-c2ccc(NC(=O)c3ccco3)cc2)cc1OC	2.1	6.0
CCCOC(=O)c1[nH]c(C)c(C(C)=O)c1C	5.2	8.7
COCc1ncc(CN(C)Cc2cnn(-c3ccccc3)c2)cn1	-16.9	-19.0
O=C(c1cc(C2CC2)on1)N1CCc2[nH]nc(-c3ccc(Cl)cc3)c2C1	6.2	4.6
CN1C(=C2C=NN(c3ccccc3)P2(=N)N2CCCC2)C(C)(C)c2ccccc21 (centres undefined)	6.1	10.5
COc1cccc(NC(=O)NCCNc2cc(N(C)C)nc(C)n2)c1	-1.5	-1.9

Three entries out of the list, sorted by SMILES length, low to high:
SMILES	NPYLR7 agonist	NPYLR7 agonist max-min
Cc1ccc(NNC(=O)Cn2cccc(C(F)(F)F)c2=O)cc1Cl	1.9	0.0
CC(=O)c1cc(C(=O)OCC(=O)Nc2cc(C)ccc2C)c2ccccn12	2.4	-6.9
Cc1ccc(CN2N=C(c3ccccc3)Cn3c2nc2c3c(=O)n(C)c(=O)n2C)cc1	-7.5	-7.3

New compounds follow:
SMILES	NPYLR7 agonist	NPYLR7 agonist max-min
COCCNC(=O)c1ccc(OC2CCN(C(=O)c3ccsc3)CC2)c(Cl)c1	-1.1	-8.6
COc1ccccc1C(C)NC(=O)Cc1cccs1 (centres undefined)	-9.5	-13.0
C=CCn1c(SCC(=O)Nc2cccc(O)c2)nc2sc(CC)cc2c1=O	-6.7	-8.3
Cc1ccc(C)c(-n2nnnc2SC2CCOC2=O)c1 (centres undefined)	-6.4	-12.6
Cc1ccccc1CN1CCN(c2nc3c(c(=O)[nH]c(=O)n3C)n2CCC(C)C)CC1	6.2	4.9
O=C(c1cc(-c2cccs2)on1)N1CCCC1	-1.7	-3.4
COc1ccc(C(=O)OCCCN=C2NS(=O)(=O)c3ccccc32)c(OC)c1	-0.8	-3.6
O=C(CN1C(=O)c2ccccc2C1=O)NCCN=C1NS(=O)(=O)c2ccccc21	-1.1	-2.8
COc1ccc(CNC(=O)c2cn(Cc3ccccc3OC)c(=O)s2)cc1	12.8	3.1
CCS(=O)(=O)c1ccc(O)c(NC(=O)c2cc(Cl)c(Cl)n2C)c1	-0.3	-3.9
CN1C[C@@H]2CC[C@H](CC1=O)N2C(=O)c1ccnc(N)c1	24.2	13.5
Cc1cc(Nc2ccc3c(n2)C(=O)N([C@H](C)C(=O)NCCCO)C3)n(C)n1	5.5	1.8
O=C(Cn1cccn1)N1CCC2(CCCN(CC3CCCCC3)C2=O)C1 (centres undefined)	17.0	6.9
COc1ccc(N2C(=O)C(c3c(C)[nH]n(-c4ccc(F)cc4)c3=O)=C([n+]3ccc(C)cc3)C2=O)cc1	-11.5	-11.1
COc1cc2c(cc1OC)CC(=O)N(CCCN(C)C[C@H]1Cc3cc(OC)c(OC)cc31)CC2	-5.4	-10.6
CCOc1c(CC)cnc2c1c(=O)n(CC(N)=O)c(=O)n2C	-2.3	-3.4
